MT1-MMP act inh = blockers of MT1-MMP proenzyme processing, primary screen, HT1080 RFP-PRO-GFP cells, GFP/RFP fluorescence; Matrix metalloproteinase-14 (Homo sapiens), P50281; GFP/RFP ratio fluorescence, overnight; percent of plate control window, DMSO zero; GFP/RFP ratio change, % at 20 µM; 360,000 compounds, 0.061% hits;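 active = GFP/RFP ratio change of at least 30% with cell ATP level not reduced by more than half and red fluorescence within 50% of control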; note: strong numbers were not always called active
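Assay system: HT1080 RFP-PRO-GFP cells. Benchmarks: DMSO vehicle wells and RFP-L50D-GFP reporter cell wells. Times: overnight cell settling, then overnight compound exposure, 37 °C, 5% CO2. Compound: 20 µM single dose, 1% DMSO. Read-out basis: GFP/RFP fluorescence ratio.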
HIV Env fusion = inhibitors of HIV-1 Env-driven cell-cell fusion, primary screen, HeLa-JRFL effector, CEM21 target cells, luciferase | AID 651610, 2012 | inhibition, % at 12.3 µM | 360,000 compounds, 1.1% hits;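 active = mean replicate inhibition score of at least 50 and every replicate individually at or above 50; inconclusive = only one of the two criteria met; inactive = mean below 50 and not all replicates reaching 50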;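 note: 0% = plate neutral controls and 100% = maraviroc near 300 nM; one replicate is shown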
CSC inhib = cancer stem cell viability inhibitors, primary screen, luminescence; cancer stem cell-like cells viability; inhibition, % at 7.5 µM; 300,000 compounds, 1.1% hits; AID 2717, 2010;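 active = mean at 75% or more and at least half the replicates too; inconclusive = mean and replicates disagree; tested in HMLE shEcad cells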;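 note: 0% = median of negative and 100% = median of positive control wells; the first replicate is given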
Rce1 inhib = yeast Rce1p protease inhibitors, primary screen, biochemical, fluorescence, cell-free homogeneous | CAAX prenyl protease 2 (Saccharomyces cerevisiae (strain ATCC 204508 / S288c)), Q03530 | yeast membranes, quenched prenylated peptide cleavage fluorescence | calls only | 290,000 compounds, 0.27% hits | AID 2563, 2010;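 active = fall in fluorescence gain of 50% or more versus controls, with final raw signal at or below 3038400; inconclusive = same 50% fall but final raw signal above 3038400; inactive = fall in fluorescence gain under 50%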;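 note: plate controls were neutral control wells for no effect and wells lacking membranes for full effect; tested at 10 µM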
Target sequence (Q03530 whole entry, looked up): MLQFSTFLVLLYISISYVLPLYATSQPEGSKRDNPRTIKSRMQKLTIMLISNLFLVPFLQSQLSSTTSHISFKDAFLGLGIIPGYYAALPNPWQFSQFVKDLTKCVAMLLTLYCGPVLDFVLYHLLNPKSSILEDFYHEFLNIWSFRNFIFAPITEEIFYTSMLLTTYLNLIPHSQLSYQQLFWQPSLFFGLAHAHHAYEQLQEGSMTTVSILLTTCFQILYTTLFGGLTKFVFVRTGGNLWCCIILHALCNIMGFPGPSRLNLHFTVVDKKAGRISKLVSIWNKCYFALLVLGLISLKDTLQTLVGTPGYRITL
UUG fidelity = modulators of yeast start codon fidelity, primary screen, whole organism, S. cerevisiae, single point, plate reader; 350,000 compounds, 0.13% hits; S. cerevisiae UUG-firefly luciferase reporter, luminescence/redox ratio; activity score, % at 18.7 µM;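 active = replicate mean at a twofold rise or more, about +100% in these data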;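 note: firefly luciferase made from a UUG start codon reports start codon fidelity; reporter light over untreated wells divided by growth signal over untreated wells; some hits fall short of that in this replicate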
eIF4H inh = human eIF4H binding inhibitors, primary screen, translation initiation inhibitor project, biochemical, uHTS, fluorescence polarization | 290,000 compounds, 0.94% hits | AID 2012, 2009 | inhibition, % at 35 µM | eIF4H fluorescence polarization binding assay | Eukaryotic translation initiation factor 4H (Homo sapiens), Q15056;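 active = 50% or more with normal probe brightness, or confirmed in later tests; inconclusive = above 50% with abnormal brightness, or retests that disagree; inactive = below 50% or failed in later tests; about a fifth of its hits are not listed in these tables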;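 note: calls also rest on retests at 20 µM and on dose response follow-up; 0% = protein and probe with vehicle and 100% = probe without protein; strong numbers were not always called active; many hits fall short of the cut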
PABP polyA inh = PABP poly(A) RNA binding inhibitors, primary screen, biochemical, fluorescence polarization, uHTS; Polyadenylate-binding protein 1 (Homo sapiens), P11940; inhibition, % at 35 µM; 290,000 compounds, 1% hits;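 active = 50% or more with normal probe brightness, or confirmed in later tests; inconclusive = above 50% with abnormal brightness, or retests that disagree; inactive = below 50% or failed in later tests; about a fifth of its hits are not listed in these tables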;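 note: calls also rest on retests at 20 µM and on dose response follow-up; controls were probe without protein and protein plus probe with vehicle; some compounds called inactive have numbers as strong as hits; many hits fall short of the cut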
MT1-MMP act inh RFP = recorded beside MT1-MMP act inh, whose call it bears; RFP signal change, %; measured here: RFP expression control read;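 0 = vehicle wells; hits needed this value within 50% of zero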
Active calls of the source: *. Not all compounds are listed; the hit share may differ from the screen's.

`C(=N\Nc1ccccc1)/c1nc2ccccc2s1` gave MT1-MMP act inh 3, HIV Env fusion -116, CSC inhib -7, Rce1 inhib inactive, eIF4H inh -3, PABP polyA inh 7 and MT1-MMP act inh RFP 3.
COc1ccc(NC(=O)CSc2nnc(C)n2C2CC2)cc1S(=O)(=O)N1CCOCC1 was read as MT1-MMP act inh 0, HIV Env fusion -1, CSC inhib 7, UUG fidelity -13 and MT1-MMP act inh RFP 5.
For CN(C(=O)CSc1n[nH]c(N)n1)C1CCCCC1 the results were MT1-MMP act inh -3, HIV Env fusion -5, CSC inhib 11, UUG fidelity -16 and MT1-MMP act inh RFP 4.
For COc1ccccc1Cn1c(C)nc2ccccc21 the results were MT1-MMP act inh 6, HIV Env fusion 5, CSC inhib -13, Rce1 inhib inactive, UUG fidelity -39, eIF4H inh 14, PABP polyA inh -6 and MT1-MMP act inh RFP -4.
Screening CCOc1ccc2oc(-c3ccccc3)c(C(=O)N(C)C)c2c1 returned MT1-MMP act inh -3, CSC inhib 8, UUG fidelity -8, eIF4H inh 6, PABP polyA inh 3 and MT1-MMP act inh RFP -5.
`CSc1nc(Oc2ccc(C)cc2)cc(C(F)(F)F)n1` gave MT1-MMP act inh 2, CSC inhib -2, Rce1 inhib inactive, UUG fidelity -16, eIF4H inh 6, PABP polyA inh -6 and MT1-MMP act inh RFP 2.
CS(=O)(=O)c1ccc2nc(NC(=O)c3ccc(=O)[nH]c3)sc2c1 was read as MT1-MMP act inh 1, HIV Env fusion -23, CSC inhib -12, Rce1 inhib inactive, eIF4H inh 21, PABP polyA inh 4 and MT1-MMP act inh RFP 5.
`N#Cc1c(N)nc2c(c1-c1ccccc1)CCCC2` gave MT1-MMP act inh -4, HIV Env fusion -22, CSC inhib -18, Rce1 inhib inactive, UUG fidelity -11, eIF4H inh -1, PABP polyA inh -13 and MT1-MMP act inh RFP -6.
Screening COc1ccccc1NC(=O)N1CCCC1C(=O)NCc1ccccc1F (stereo unspecified) returned MT1-MMP act inh 1, HIV Env fusion -23, CSC inhib -2, Rce1 inhib inactive, UUG fidelity 7, eIF4H inh 1, PABP polyA inh -3 and MT1-MMP act inh RFP 0.
Screening O=C(Cc1ccc(-n2c(=S)[nH]c3ccccc3c2=O)cc1)N1CCN(c2ccccc2)CC1 returned MT1-MMP act inh 9, HIV Env fusion inconclusive, CSC inhib 28, Rce1 inhib inactive, UUG fidelity -18, eIF4H inh -2, PABP polyA inh 6 and MT1-MMP act inh RFP -3.
For CCOc1ccc(-n2c(SCC(=O)Nc3cc(C(=O)O)ccc3Cl)nc3ccccc3c2=O)cc1 the results were MT1-MMP act inh -4, HIV Env fusion 12, CSC inhib -15, Rce1 inhib inactive, UUG fidelity -11, eIF4H inh -18, PABP polyA inh 17 and MT1-MMP act inh RFP 8.
Screening Cc1cc(S(=O)(=O)NC[C@H]2O[C@@H](n3cnc4c(N)ncnc43)[C@H](O)[C@@H]2O)c(C)s1 returned MT1-MMP act inh 0, HIV Env fusion 23, UUG fidelity -12 and MT1-MMP act inh RFP 1.
`Cc1ccc(CCN2C(=O)c3ccccc3C2C(=O)NCc2cccnc2)cc1` (stereo unspecified) gave MT1-MMP act inh -5, HIV Env fusion 6, CSC inhib -8, Rce1 inhib inactive, UUG fidelity -13, eIF4H inh 1, PABP polyA inh 16 and MT1-MMP act inh RFP -3.
Nc1ccc2oc(-c3cccc(Br)c3)nc2c1 was read as MT1-MMP act inh 2, CSC inhib -4, Rce1 inhib inactive, UUG fidelity -51, eIF4H inh -13, PABP polyA inh -2 and MT1-MMP act inh RFP 1.
`CCc1cc2cc(C(=O)Nc3ccc(C)cc3)sc2s1` gave MT1-MMP act inh 3, HIV Env fusion -66, CSC inhib -4, Rce1 inhib inactive, UUG fidelity 1, eIF4H inh 5, PABP polyA inh -1 and MT1-MMP act inh RFP 0.

Retrieved by structure from above (2):
Screening CCOc1ccc2oc(-c3ccccc3)c(C(=O)N(C)C)c2c1 returned MT1-MMP act inh -3, CSC inhib 8, UUG fidelity -8, eIF4H inh 6, PABP polyA inh 3 and MT1-MMP act inh RFP -5.
CS(=O)(=O)c1ccc2nc(NC(=O)c3ccc(=O)[nH]c3)sc2c1 was read as MT1-MMP act inh 1, HIV Env fusion -23, CSC inhib -12, Rce1 inhib inactive, eIF4H inh 21, PABP polyA inh 4 and MT1-MMP act inh RFP 5.

Next part
`Cc1ccsc1/C=N/NC(=O)CNC(=O)c1ccco1` gave MT1-MMP act inh -2, HIV Env fusion -8, CSC inhib -5, Rce1 inhib inactive, eIF4H inh -7, PABP polyA inh -10 and MT1-MMP act inh RFP 1.
Cc1ccc(S(=O)(=O)Cn2nnnc2C(C(C)C)N2CCN(c3nc4ccccc4s3)CC2)cc1 (stereo unspecified) was read as MT1-MMP act inh -10, CSC inhib -12, Rce1 inhib inactive, UUG fidelity -12, eIF4H inh -9, PABP polyA inh 14 and MT1-MMP act inh RFP -15.
`O/N=C1\CCCc2ccccc21` gave MT1-MMP act inh 0, HIV Env fusion 1, CSC inhib -3, eIF4H inh -6, PABP polyA inh 2 and MT1-MMP act inh RFP 3.
`O=C(CC(c1ccccc1)c1cc(Br)ccc1O)N1CCCCC1` (stereo unspecified) gave MT1-MMP act inh -15, HIV Env fusion 11, Rce1 inhib inactive, UUG fidelity -18, eIF4H inh -7, PABP polyA inh -3 and MT1-MMP act inh RFP -19.
`O=C(CN1C(=O)C2C3CC(C(Br)C3Br)C2C1=O)N1CCN(Cc2ccccc2)CC1` (stereo unspecified) gave MT1-MMP act inh -3, HIV Env fusion -2, CSC inhib 9, Rce1 inhib inactive, UUG fidelity -21, eIF4H inh 0, PABP polyA inh -6 and MT1-MMP act inh RFP -3.
Screening CCOC(=O)C1(C)C=C(Nc2ccc(NC(C)=O)cc2)C(=O)N1c1ccc(NC(C)=O)cc1 (stereo unspecified) returned MT1-MMP act inh -2, HIV Env fusion -9, CSC inhib -7, Rce1 inhib inactive, eIF4H inh 1, PABP polyA inh 2 and MT1-MMP act inh RFP -1.
`COc1ccc(/C=C2\SC(=S)N(CCCC(=O)N3CCOCC3)C2=O)cc1OC` gave HIV Env fusion 1, CSC inhib -10, Rce1 inhib inactive, UUG fidelity -5, eIF4H inh 37 and PABP polyA inh 6.
`NC(=O)CCN1CCN(CCOC2Cc3cc(Cl)ccc3Sc3ccccc32)CC1` (stereo unspecified) gave MT1-MMP act inh -9, CSC inhib 46, Rce1 inhib inactive, UUG fidelity 4, eIF4H inh -7, PABP polyA inh 3 and MT1-MMP act inh RFP -6.
`Cc1ccsc1C(=O)N1CCCC1(C)C(=O)NCC(C)C` (stereo unspecified) gave MT1-MMP act inh 3, HIV Env fusion 8, UUG fidelity -9 and MT1-MMP act inh RFP 3.
For COc1ccc(Cn2c(=O)[nH]c3cc(C(=O)Nc4ccc(N5CCN(C)CC5)cc4)ccc32)cc1 the results were MT1-MMP act inh 3, HIV Env fusion -41, Rce1 inhib inactive, eIF4H inh 0, PABP polyA inh -5 and MT1-MMP act inh RFP 4.
CCc1cc(-c2[nH]ncc2-c2ccc([N+](=O)[O-])cc2)c(O)cc1OC was read as MT1-MMP act inh 4, CSC inhib 44, Rce1 inhib inactive, UUG fidelity -12, eIF4H inh -3, PABP polyA inh -8 and MT1-MMP act inh RFP -12.
For CCN(CC)c1cc2c(c3c1ccn3C)C1CCC2C1 (stereo unspecified) the results were MT1-MMP act inh -5, HIV Env fusion 3, UUG fidelity -12 and MT1-MMP act inh RFP 0.
For CCOc1ccc(/C(O)=C2\C(=O)C(=O)N(c3ccccn3)C2c2ccccc2F)c(C)c1 (stereo unspecified) the results were MT1-MMP act inh -1, HIV Env fusion 7, UUG fidelity -23 and MT1-MMP act inh RFP 4.
Cc1c(C(=O)N(C)CCn2ccnc2C)oc2c(F)cccc12 was read as MT1-MMP act inh 0, HIV Env fusion 1, CSC inhib -9, Rce1 inhib inactive, UUG fidelity -8, eIF4H inh -4, PABP polyA inh -2 and MT1-MMP act inh RFP 0.
Screening O=C(CSc1ncn[nH]1)Nc1ccc(Br)cc1Br returned MT1-MMP act inh -1, HIV Env fusion -14, CSC inhib -1, UUG fidelity -12 and MT1-MMP act inh RFP 0.
COCCCNC(=O)c1cc(Nc2ccc(OC)cc2OC)nc2ccccc12 was read as MT1-MMP act inh -1, HIV Env fusion -9, CSC inhib -6, Rce1 inhib inactive, UUG fidelity -1, eIF4H inh -6, PABP polyA inh 9 and MT1-MMP act inh RFP -2.
For CCN(Cc1cc(=O)oc2cc(C)ccc12)c1ccccc1 the results were MT1-MMP act inh -1, HIV Env fusion 16, Rce1 inhib inactive, UUG fidelity -18, eIF4H inh -7, PABP polyA inh 0 and MT1-MMP act inh RFP -8.
`O=C(CN1c2ccccc2Sc2ccccc21)NNC(=O)Nc1ccc(Cl)cc1` gave MT1-MMP act inh 6, HIV Env fusion 9, Rce1 inhib inactive, UUG fidelity -15, eIF4H inh 3, PABP polyA inh -6 and MT1-MMP act inh RFP -5.
For CCOc1ccc2nc(NCCNC(=O)CC)c(C#N)cc2c1 the results were MT1-MMP act inh 3, HIV Env fusion -14, CSC inhib -8, Rce1 inhib inactive, UUG fidelity 0, eIF4H inh 0, PABP polyA inh 45 and MT1-MMP act inh RFP -1.
Cc1cc(=O)oc(C)c1C(=O)NCc1ccco1 was read as MT1-MMP act inh -1, CSC inhib 10, Rce1 inhib inactive, UUG fidelity -47, eIF4H inh 4, PABP polyA inh 6 and MT1-MMP act inh RFP 4.
For CN(C)CCN(C(=O)C1CCCCC1)c1nc2cc3c(cc2s1)OCO3 the results were MT1-MMP act inh 0, HIV Env fusion 5, CSC inhib -6, Rce1 inhib inactive, UUG fidelity -17, eIF4H inh -2, PABP polyA inh 11 and MT1-MMP act inh RFP 6.
For Cc1occc1C(=O)Nc1ccc([N+](=O)[O-])cc1Br the results were MT1-MMP act inh -1, HIV Env fusion -32, Rce1 inhib inactive, UUG fidelity -14, eIF4H inh -10, PABP polyA inh 1 and MT1-MMP act inh RFP 4.
COc1ccc(CCNC(=O)CSc2nn(-c3ccccc3)c(=S)s2)cc1OC was read as MT1-MMP act inh 0, CSC inhib 12, Rce1 inhib inactive, eIF4H inh -9, PABP polyA inh -4 and MT1-MMP act inh RFP 3.
CCOP(=O)(c1ccccc1)C1(O)CCCCC1 (stereo unspecified) was read as MT1-MMP act inh 1, CSC inhib -4, Rce1 inhib inactive, UUG fidelity -1, eIF4H inh -3, PABP polyA inh 3 and MT1-MMP act inh RFP 9.
For CCNC(=O)C1CCCN1S(=O)(=O)c1ccc(C)cc1 (stereo unspecified) the results were MT1-MMP act inh 2, CSC inhib -9, UUG fidelity -8, eIF4H inh 0, PABP polyA inh -5 and MT1-MMP act inh RFP 3.
Screening Cc1cc(Br)c(S(=O)(=O)NCCN2CCOCC2)cc1C returned MT1-MMP act inh -1, HIV Env fusion -50, CSC inhib -3, Rce1 inhib inactive, UUG fidelity -20, eIF4H inh -10, PABP polyA inh 3 and MT1-MMP act inh RFP 2.
Screening Cc1ccccc1C(C(=O)NCc1ccccc1)N(Cc1ccco1)C(=O)c1ccccn1 (stereo unspecified) returned MT1-MMP act inh -2, HIV Env fusion -40, CSC inhib -15, Rce1 inhib inactive, UUG fidelity -12, eIF4H inh -8, PABP polyA inh -7 and MT1-MMP act inh RFP -13.

Assay outcomes as filed in PubChem BioAssay.
